Screening results as filed in PubChem BioAssay.
KCNQ2 enhance – enhances the rat KCNQ2 potassium channel; O88943; CHO-K1 KCNQ2, FluxOR thallium flux fluorescence; stronger effect = higher value; B-score at 10 µM; actives 0.54% (n = 310,000); AID 2239;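 active = fluorescence ratio B-score at least 3 SD of library B-scores, with initial fluorescence B-score within 3 SD, cut at about 5.3 in these data; same plate scores as AID 2156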;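 note: B-score of peak minus minimum over baseline fluorescence ratio after K+ and Tl+ stimulus; positive B-score means potentiation of KCNQ2 with more thallium influx and brighter signal; only the inactives scoring about 0 or higher are listed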
Target sequence (O88943 whole entry, looked up): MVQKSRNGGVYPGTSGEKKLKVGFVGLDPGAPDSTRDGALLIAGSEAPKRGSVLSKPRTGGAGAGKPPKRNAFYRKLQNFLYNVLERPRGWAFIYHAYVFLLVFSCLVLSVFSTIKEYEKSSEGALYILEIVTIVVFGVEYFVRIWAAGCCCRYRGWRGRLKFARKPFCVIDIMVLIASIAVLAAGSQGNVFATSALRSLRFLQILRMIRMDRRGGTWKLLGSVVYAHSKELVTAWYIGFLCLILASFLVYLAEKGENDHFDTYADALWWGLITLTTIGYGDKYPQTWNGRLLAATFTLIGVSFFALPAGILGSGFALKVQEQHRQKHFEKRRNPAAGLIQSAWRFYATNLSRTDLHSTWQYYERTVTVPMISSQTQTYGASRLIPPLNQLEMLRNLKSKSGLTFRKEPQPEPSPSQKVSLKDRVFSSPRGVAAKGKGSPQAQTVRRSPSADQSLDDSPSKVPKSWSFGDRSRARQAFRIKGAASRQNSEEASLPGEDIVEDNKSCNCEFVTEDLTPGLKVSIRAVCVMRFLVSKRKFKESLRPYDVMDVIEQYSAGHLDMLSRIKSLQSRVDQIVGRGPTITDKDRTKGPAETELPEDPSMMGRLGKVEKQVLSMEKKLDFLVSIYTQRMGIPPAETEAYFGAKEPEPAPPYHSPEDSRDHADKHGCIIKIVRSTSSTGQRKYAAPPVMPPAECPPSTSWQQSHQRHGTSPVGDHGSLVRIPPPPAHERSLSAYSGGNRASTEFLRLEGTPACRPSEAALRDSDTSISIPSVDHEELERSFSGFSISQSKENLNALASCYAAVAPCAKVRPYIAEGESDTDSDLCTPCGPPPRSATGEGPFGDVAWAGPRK
KCNQ2 enhance baseline – further read-out of KCNQ2 enhance, marked with its call; B-score; compound at 10 µM; measured here: initial fluorescence intensity artifact check;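 brightness before thallium and not channel activity; 0 = typical well and far values either way flag optical interference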
Active calls of the source: *.

| SMILES | KCNQ2 enhance | KCNQ2 enhance baseline |
| --- | --- | --- |
| COc1ccc(OC)c(C(C)NC(=S)NC2CCCCC2)c1 (stereo not given) | 1.86 | -0.67 |
| COc1ccc(NC(=O)c2ccc(-c3ccccc3Cl)o2)cc1 | 2.16 | 0.19 |
| COc1ccc(-c2noc(CN(C)Cc3ccccc3)n2)c(OC)c1OC | 0.18 | 0.08 |
| COC(=O)CCCCCN1C(=O)NC(C2CC2)C(C(=O)OCc2ccccc2)=C1C (stereo not given) | 1.05 | -1.79 |
| COc1ccccc1Nc1nc(-c2ccccc2O)nc2ccccc12 | 0.31 | 1.58 |
| Cc1ccc2cc(CCNC(=O)c3cc4ccccc4o3)c(=O)[nH]c2c1C | 1.42 | 1.45 |
| CN1Cc2cc(C(=O)c3ccccc3O)cnc2NC1=O | 1.44 | -1.76 |
| CC(C)(Oc1ccc(Cl)cc1)C(=O)OCC(=O)N1CCN(c2ccccc2)CC1 | 1.19 | -0.2 |
| [N-]=[N+]=NC1CC(CO)OC1n1ccc(=O)[nH]c1=O (stereo not given) | 0.67 | 0.64 |
| Cc1ccccc1C(=O)N1CCN(c2ccc(NC(=S)NC(=O)c3ccco3)cc2)CC1 | 0.22 | -0.84 |

Next entries follow:
| SMILES | KCNQ2 enhance | KCNQ2 enhance baseline |
| --- | --- | --- |
| Cc1ccc(C)c(NC(=O)Cn2c(=O)n(-c3ccc(CC(=O)NCC4CCCO4)cc3)c(=O)c3ccccc32)c1 (stereo not given) | 0.58 | -0.29 |
| N#CCOc1nc(N2CCCC2)nc(N2CCCC2)n1 | 0.93 | 1.34 |
| CCOC(=O)CN1C(=O)NC2(CCCc3ccccc32)C1=O (stereo not given) | 0.78 | -0.5 |
| COCCNC(=O)Cn1nc(C(F)(F)F)c(Br)c1C | 0.52 | -1.13 |
| O=C(O)C(C(O)c1ccccc1)[n+]1ccccc1 (stereo not given) | 0.56 | 0.01 |
| O=C(CSc1nnnn1C1CCCCC1)Nc1nc2c(s1)CCCC2 | 2.38 | -0.27 |
| COc1ccc(S(=O)(=O)NCc2ccncc2)cc1OC | 0.02 | 5.92 |
| CC(=O)N1CSCC1C(=O)NNS(=O)(=O)c1cccc(C(F)(F)F)c1 (stereo not given) | 0.11 | 1.45 |
| O=C(CCc1nnc(CCCCc2ccccc2)o1)N1CCN(CCO)CC1 | 0.9 | -0.2 |
| O=C(c1cc2c(s1)-c1ccccc1S(=O)(=O)C2)N1CCN(Cc2ccccc2)CC1 | 2.58 | 0.53 |

(next part)
| SMILES | KCNQ2 enhance | KCNQ2 enhance baseline |
| --- | --- | --- |
| COc1ccc(C(C)NC(=O)c2ccccc2Cl)cc1OC (stereo not given) | 0.64 | -0.17 |
| O=S(=O)(Nc1ccc(O)cc1)c1cccc2cccnc12 | 1.6 | -1.44 |
| O=C(c1cccs1)N1CCc2ccccc2C1 | 0.22 | 0.91 |
| CCOC(=O)CNS(=O)(=O)c1cc(-c2n[nH]c(=O)c3ccccc23)ccc1C | 1.33 | 0.46 |
| Cc1nc(NC(=O)CSc2nnc(C)n2CC2CCCO2)sc1C (stereo not given) | 0.73 | 3.27 |
| COc1ccc2c(c1O)C(=O)c1ccccc1C2=O | 0.57 | -0.09 |
| CCOCc1nnc(NC(=O)c2cc(C(=O)OC)cc([N+](=O)[O-])c2)s1 | 0.68 | 1.38 |
| Cc1cccc(NC(=S)Nc2c(C)n(C)n(-c3ccccc3)c2=O)c1C | 1.7 | 1.34 |
| CC(=O)Nc1ccc(C(=O)N/C(=C/c2ccccc2)C(=O)Nc2cccc(C(=O)O)c2)cc1 | 0.23 | -1.24 |
| CCOc1ccc(NC(=O)N2CCC(NC(=O)c3ccco3)CC2)cc1 | 0.98 | 0.6 |

Given as labelled records: entries from further up.
Structure: [N-]=[N+]=NC1CC(CO)OC1n1ccc(=O)[nH]c1=O (stereo not given)
  KCNQ2 enhance: 0.67
  KCNQ2 enhance baseline: 0.64
Structure: Cc1ccccc1C(=O)N1CCN(c2ccc(NC(=S)NC(=O)c3ccco3)cc2)CC1
  KCNQ2 enhance: 0.22
  KCNQ2 enhance baseline: -0.84
Structure: Cc1ccc(C)c(NC(=O)Cn2c(=O)n(-c3ccc(CC(=O)NCC4CCCO4)cc3)c(=O)c3ccccc32)c1 (stereo not given)
  KCNQ2 enhance: 0.58
  KCNQ2 enhance baseline: -0.29
Structure: N#CCOc1nc(N2CCCC2)nc(N2CCCC2)n1
  KCNQ2 enhance: 0.93
  KCNQ2 enhance baseline: 1.34

Exported with values ahead of the structure: entries from further up.
KCNQ2 enhance | KCNQ2 enhance baseline | smiles
0.02 | 5.92 | COc1ccc(S(=O)(=O)NCc2ccncc2)cc1OC
0.11 | 1.45 | CC(=O)N1CSCC1C(=O)NNS(=O)(=O)c1cccc(C(F)(F)F)c1 (stereo not given)
0.9 | -0.2 | O=C(CCc1nnc(CCCCc2ccccc2)o1)N1CCN(CCO)CC1

Next part:
| SMILES | KCNQ2 enhance | KCNQ2 enhance baseline |
| --- | --- | --- |
| COc1cccc(NC(=O)C(C#N)Cc2ccncc2)c1 (stereo not given) | 0.77 | -0.44 |
| O=C(c1cc2ccccc2o1)N1CCN(c2cccc(Cl)c2)CC1 | 1.57 | -0.53 |
| O=C(NCc1ccco1)c1ccc2ccccc2n1 | 1.31 | -0.02 |
| Cc1ccc(-c2nc(C)c(C(=O)O)s2)cc1 | 0.85 | 0.8 |
| COc1ccc(C(=O)N/C(=C/c2ccco2)C(=O)NC2CCS(=O)(=O)C2)cc1 (stereo not given) | 0.21 | -1.41 |
| NC(=O)C1(C(N)=O)OC1c1ccc(Cl)cc1Cl (stereo not given) | 0.77 | -1.14 |
| C=CCN1C(=O)C(C)(C)N(C(=O)c2cccc([N+](=O)[O-])c2)c2ccccc21 | 1.04 | 0.5 |
| CC(C)c1ccccc1NC(=S)NC(C)c1ccccc1 (stereo not given) | 1.33 | 0.73 |
| O=C(Cn1cnc2c(nnn2Cc2ccccc2F)c1=O)OCc1ccccc1 | 0.77 | 1.14 |
| Cc1ccc(N(CC(=O)N2CCn3c2nc2ccccc23)S(=O)(=O)c2c(C)n[nH]c2C)cc1 | 0.82 | -2.38 |

Continuation.
| SMILES | KCNQ2 enhance | KCNQ2 enhance baseline |
| --- | --- | --- |
| COc1ccc(S(=O)(=O)CC2(O)CCN(C(=O)C(C)(C)C)CC2)cc1 | 4.97 | 0.44 |
| CCN(CC)CCNC(=O)c1cc(-c2ccco2)nc2ccccc12 | 0.72 | -0.29 |
| CCC(=O)c1ccc(CCCCCC(=O)O)s1 | 0.67 | 0.06 |
| O=C(COC(=O)CCCN=C1NS(=O)(=O)c2ccccc21)NC(=O)NC1CCCC1 | 0.28 | 1.58 |
| CC(=O)Nc1ccc(S(=O)(=O)N[C@@H](C)C(=O)OCc2ccc(Cl)cc2)cc1 | 0.03 | -1.34 |
| CC(=O)Nc1ccc(N2CCc3c(C)c(C#N)c4nc5ccccc5n4c32)cc1 | 1.2 | -0.31 |
| O=C(Nc1nc2c(s1)CCCC2=O)c1cnccn1 | 1.39 | 1.37 |
| CC1(C)C2CCC1(C)C(OC(=O)c1ccc(O)cc1)C2 (stereo not given) | 0.77 | -0.47 |
| O=C(O)COc1ccc2oc3c(c2c1)CCCC3 | 0.37 | -0.08 |
| O=C(CN1CCN(Cc2ccccc2)CC1)Nc1ccc(S(=O)(=O)N2CCOCC2)cc1 | 0.01 | -0.22 |

Further results follow:
| SMILES | KCNQ2 enhance | KCNQ2 enhance baseline |
| --- | --- | --- |
| CCC1CCCCN1C(=S)NCc1ccccc1 (stereo not given) | 1.23 | 1.09 |
| CN(C)S(=O)(=O)c1ccc(NC(=O)CNc2cc(S(=O)(=O)N3CCCC3)ccc2OCC(F)(F)F)cc1 | 0.7 | -1.41 |
| Cn1c(=O)c2c(nc(SCC(=O)N3CCCCCC3)n2C)n(C)c1=O | 0.97 | 0.02 |
| CC(Oc1ccc(Cl)cc1Cl)C(=O)Nc1ccc(N2CCN(C)CC2)cc1 (stereo not given) | 1.46 | 0.11 |
| CCOC(CNC(=O)C(=O)NCC(c1ccco1)N1CCN(c2ccc(OC)cc2)CC1)OCC (stereo not given) | 0.57 | 0.99 |
| CCc1ccc(S(=O)(=O)n2c(C)nc3ccccc32)cc1 | 0.17 | -0.11 |
| CCOc1ccc(CN(C)C(=O)CNC(=O)c2cc(OC)c(OC)c(OC)c2)cc1 | 0.99 | -0.03 |
| O=C(c1ccc(S(=O)(=O)N2CCCCC2)cc1)N(c1ccccn1)C1CCCCC1 | 1.52 | -0.82 |
| CCCCC1OC23CCCCC2C(C#N)(C(=N)O3)C1(C#N)C#N (stereo not given) | 0.08 | -2.72 |
| COc1ccccc1C(=O)NNC(=O)Cc1ccccc1 | 1.54 | 0.06 |

Following part.
| SMILES | KCNQ2 enhance | KCNQ2 enhance baseline |
| --- | --- | --- |
| O=C(c1cccs1)N1CCN(C(=O)C2CCCO2)CC1 (stereo not given) | 0.77 | -1.29 |
| CCCCCn1c(=O)[nH]c2cc(C(=O)NCCCN3CCC(C)CC3)ccc2c1=O | 0.94 | 1 |
| O=C(Nc1ccc(CN2CCOCC2)cc1)c1cccs1 | 0.17 | 1.43 |
| COc1ccc(C(=O)NC(=S)SCC(=O)O)cc1 | 1.67 | 1.94 |
| CCOC(=O)N1CCN(c2c(NCCCN(C)c3ccccc3)c(=O)c2=O)CC1 | 0.67 | -0.4 |
| CC(Sc1nc(-c2ccccc2)cc(C(F)(F)F)n1)C(=O)N1CCCC1 (stereo not given) | 0.82 | -3 |
| N=c1n(CCOc2ccccc2)c2ccccc2n1CCN1CCOCC1 | 1.27 | 1.82 |
| CCOc1ccc(NS(=O)(=O)c2cc(Cl)ccc2OC)cc1 | 1.82 | -0.64 |
| Cc1nc2ccc(NC(=O)c3cc(S(=O)(=O)N4CCOCC4)ccc3C)cc2s1 | 1.78 | -0.38 |
| O=C(NC(=S)Nc1cnc2ccccc2c1)c1ccccc1 | 0.61 | -0.25 |

(further entries)
SMILES	KCNQ2 enhance	KCNQ2 enhance baseline
O=C(NCCCN1CCOCC1)C1CCC(=O)N1CCc1ccccc1 (stereo not given)	0.75	-1.99
Cc1ccccc1NC(=S)N(CCN(C)C)C(C)c1cccnc1 (stereo not given)	0.09	1.61
CN1CCN(CC#CC2(O)CCCCC2)CC1	1.23	0.05
CCOCCOC(=O)c1[nH]c2c(c1C)C(=O)CC(c1cccs1)C2 (stereo not given)	0.02	0.75
O=C(O)c1ccc(S(=O)(=O)NC2CC2)cc1	1.22	-1.66
COc1cc(C(=O)NCCSc2ccc(F)cc2)cc(OC)c1OC	0.8	0.03
CCOC(=O)C1=C(C)NC2(O)c3ccccc3C(=O)C12O (stereo not given)	1.84	-0.38
CC1CC(=O)N(CC(=O)Nc2ccc3c(c2)OCCO3)c2ccccc2S1 (stereo not given)	0.05	-0.32
CCC(C)(NC(=O)Cc1c[nH]c2ccccc12)C(=O)NC1CCCCC1 (stereo not given)	0.31	0.8
CCOC(=O)C1(Cc2ccccc2C(F)(F)F)CCN(C2CCN(C(C)C)CC2)CC1	2.32	0.72
C#Cc1cccc(NC(=O)c2ccc3c(c2)C(=O)N(Cc2cccnc2)C3=O)c1	1.08	1.73
O=C(/C=C/c1ccccc1)N/C(=C\c1ccco1)C(=O)O	0.1	-1.88
CCCc1cc(=O)oc2cc(OCc3nn[nH]n3)ccc12	0.31	-0.98
COc1cc(OC)c(NC(=O)CC(=O)Nc2cc(Cl)c(OC)cc2OC)cc1Cl	0.14	0.03
CCOC(=O)c1c(N=CN(C)C)c2cc([N+](=O)[O-])cnc2n1C	0.73	0.36
COc1ccc(OC)c(NC(=O)CCCc2ccccc2)c1	2.37	-0.3
CCCOC(=O)c1ccc(NC(=O)/C=C/c2cccs2)cc1	1.21	-0.58
O=C(Cc1cccs1)NCCc1csc(-c2ccccc2)n1	0.88	0.81
CCOC(=O)C1CCCN(C(=O)c2cc3cc(F)ccc3[nH]2)C1 (stereo not given)	1.13	0.02
COc1ccc(CNC(=O)CCNS(=O)(=O)c2ccc3c(c2)oc(=O)n3C)cc1	0.17	0.71

Next section:
SMILES	KCNQ2 enhance	KCNQ2 enhance baseline
CC1CCCC(C)N1c1nnc(NC(=O)Cn2c(=O)oc3ccccc32)s1 (stereo not given)	1.49	-0.16
CCc1nc(OCCN(CC)CC)c2oc3ccccc3c2n1	1.43	-0.37
OC(CN1CCCCC1)Cn1c2ccccc2c2ccccc21 (stereo not given)	0.06	1.11
NS(=O)(=O)c1ccc(CCNc2ncnc3sccc23)cc1	0.32	-0.13
O=C(COC(=O)c1cc(Br)ccc1O)NNC(=O)c1ccc(Cl)cc1	0.17	-1.12
NNc1ccc2nnc(C(F)(F)C(F)(F)C(F)(F)F)n2n1	1.35	-0.08
COc1ccc(-c2csc(NC(CO)c3nc4ccccc4n3CCCO)n2)cc1 (stereo not given)	0.99	-1.74
O=c1cc(N2CCN(c3ccc(F)cc3)CC2)[nH]c(=O)n1C1CCCCC1	0.54	1.7
CCOC(=O)Cc1cc(=O)n(-c2nc3ccccc3s2)[nH]1	0.79	0.1
CCOC(=O)N1CCN(C(=O)CNCc2cccs2)CC1	1.21	-0.5
Cn1c(=O)c2nc(-c3ccccc3)oc2c2ccccc21	0.45	0
CCc1ccc(OCC(=O)N/N=C\c2ccco2)c([N+](=O)[O-])c1	1.3	-0.2
O=C(Nn1cnnc1)c1ccccc1CCc1ccccc1	0.01	0.37
CC(=O)Nc1ccc(NC(=O)C2CCN(c3ccc(C(F)(F)F)cn3)CC2)cc1	1.5	-0.72
Cc1ccc2c(c1)N(C(=O)CCC(=O)N1CCN(c3ccccc3)CC1)CCO2	0.01	-0.68
C=CCn1c(-c2ccco2)n[nH]c1=S	1.5	-0.73
Cc1ccc(S(=O)(=O)NCc2ccccn2)cc1C	0.24	0.62
CCCc1cc2c(=O)c(-c3ccccn3)c(C)oc2cc1O	0.67	0.68
CS(=O)(=O)c1ccc(Cl)c(NC(=O)CCCSc2ccccc2)c1	3.12	0.11
CCNc1nc(OC)nc(SCC(N)=O)n1	0.57	-1.11
Cc1ccc(C(=O)N2CCN(c3ccccc3)CC2)cc1S(=O)(=O)N1CCOCC1	0.42	0.95

Not all compounds are listed; rates above refer to the full screens.
